Bioassay records as filed in PubChem BioAssay.
gsp ag: qHTS for Agonist of gsp, the Etiologic Mutation Responsible for Fibrous Dysplasia/McCune-Albright Syndrome: qHTS | gsp mutant cells, cAMP HTRF, 30 min; control for the full effect not named in the record | Potency, µM (series often up to 76.9 µM), without a hit: at the highest dose activation (cAMP increase), usual class: activators | 340,000 compounds, 0.13% hits | AID 624287, 2012; active = well fitted activation curve with a large enough effect; inconclusive = small, poorly fitted or top-dose-only effect, or another doubt; inactive = no such curve, though single readings can be large or run the other way; cell line not stated here;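 further: phosphodiesterase inhibitor Ro 20-1724 added with compounds to block cAMP breakdown; potency means the concentration at half of the fitted maximal effect; nearly all actives have a fitted effect of over 60% in size; about a fifth of the inactives were tested at one dose only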
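Cells stably selected in G418 were plated at 2000/well, grown 16-24 hr, then given compounds in DMSO with the PDE inhibitor […] (300 uM solution added) for 30 min at 37C; cAMP was read by HTRF.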
gsp antagonist: qHTS for Antagonists of gsp, the Etiologic Mutation Responsible for Fibrous Dysplasia/McCune-Albright Syndrome: qHTS; gsp-mutant cells, cAMP HTRF, 30 min; control for the full effect not named in the record; Potency, µM (top dose mostly 76.9 µM), inactives show top-dose activity change, negative = inhibition, usual class: inhibitors; 340,000 compounds, 0.4% hits; active = falling curve of any shape with a large fitted effect; inconclusive = falling curve, mostly with a smaller effect; inactive = flat or rising curve; cell line not stated here;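 further: intracellular cAMP measured with PDE inhibitor Ro 20-1724 present during compound exposure; potency means the concentration at half of the fitted maximal effect; on the % scale 0 is the no-effect control and ±100 the full control effect; nearly all actives have a fitted effect of over 65% in size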
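HTRF cAMP read-out (cAMP-d2 plus anti-cAMP antibody-K in lysis buffer, 30 min RT). Before lysis, cells are exposed to compounds with […] for 30 min at 37C in DPBS containing Ca/Mg, BSA and Tween 20.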
Menin MLL FP FL: qHTS Assay for Inhibitors Targeting the Menin-MLL Interaction in MLL Related Leukemias: Competition With Fluorescein Labeled MLL-derived Peptide; Fluorescence polarization, fluorescein-MLL peptide displacement from menin; FP activity change, % at 61.4 µM; 290,000 tested, under 10 active; inconclusive = falling polarisation curve, or a change in total fluorescence; inactive = total fluorescence flat and polarisation flat or rising; no compound was filed as active; the % refers to the polarisation; negative = inhibition;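 further: % of control where 0% means no effect; inhibitors lower the polarisation; unlabelled MLL peptide was the positive control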
TRPML1 ag: qHTS for Agonists of the Human Mucolipin Transient Receptor Potential 1 (TRPML1); Mucolipin-1 (Homo sapiens), Q9GZU1; 410,000 compounds, 0.12% hits; AID 624414, 2012; activation, % (concentration not given with the values); TRPML1-expressing cells, Ca2+ dye fluorescence, FDSS; host cell line not named in the record; reference of the full effect not given here; in the data active = activation above about 50%; inconclusive = about 30% to 50%; inactive = below about 30%; further: 0% is about no effect; the text of the record puts the active cut at 80%
Target sequence (Q9GZU1 whole entry, looked up): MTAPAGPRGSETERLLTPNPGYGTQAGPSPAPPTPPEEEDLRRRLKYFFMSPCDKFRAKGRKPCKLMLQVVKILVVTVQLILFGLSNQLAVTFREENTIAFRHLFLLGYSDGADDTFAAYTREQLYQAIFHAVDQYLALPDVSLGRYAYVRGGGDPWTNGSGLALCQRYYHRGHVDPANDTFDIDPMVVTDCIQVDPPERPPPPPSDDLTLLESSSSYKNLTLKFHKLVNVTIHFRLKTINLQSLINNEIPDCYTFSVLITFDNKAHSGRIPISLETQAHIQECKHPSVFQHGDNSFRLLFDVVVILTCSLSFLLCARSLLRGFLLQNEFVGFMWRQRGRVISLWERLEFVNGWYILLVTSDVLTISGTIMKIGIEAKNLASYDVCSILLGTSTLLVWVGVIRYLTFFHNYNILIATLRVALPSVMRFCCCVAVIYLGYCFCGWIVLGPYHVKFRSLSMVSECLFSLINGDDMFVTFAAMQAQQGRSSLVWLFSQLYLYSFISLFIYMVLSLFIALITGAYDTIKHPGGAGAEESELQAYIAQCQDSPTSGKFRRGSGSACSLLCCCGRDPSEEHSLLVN
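Tet-induced TRPML1-DL cells, 1,500 per well, cultured overnight, were loaded with a no-wash Ca2+ dye for 45–90 min. Calcium fluorescence was recorded on the FDSS for 110 s after compound addition, before the EC80 agonist (4 uM 54-4) was added.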
TRPML1 blocker: qHTS for Inhibitors of the Human Mucolipin Transient Receptor Potential 1 (TRPML1) | Mucolipin-1 (Homo sapiens), Q9GZU1 | TRPML1-inducible cells, Ca2+ dye fluorescence, FDSS; hits give low values; inhibition of EC80 agonist-evoked calcium signal | activity change, negative = inhibition, % (no concentration beside the values) | 390,000 compounds, 0.02% hits; in the data active means activity change below about -50%; inconclusive means about -30% to -50%; inactive means above about -30%;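 further: stimulus is agonist 54-4 at its EC80 concentration; on the % scale 0 is the no-effect control and ±100 the full control effect; compound concentration not given in the record; the text of the record puts the active cut at -80%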
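TRPML1-DL cells, Tet-induced overnight (~16 h, 37 °C) at 1,500 cells/well, were loaded with Ca8 no-wash dye plus quencher for 45-90 min at room temperature. Compounds were pinned during FDSS kinetic reading; agonist 54-4 at EC80 (4 uM final) then added.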
ClpP mod: qHTS Assay for Activators of ClpP | purified B. subtilis ClpP, FRET peptide cleavage, 20 min | 340,000 compounds, 1.9% hits | Potency, µM (series often up to 57.5 µM), inactives show at the top dose activity change, negative = active; active = well fitted falling curve with a large enough effect; inconclusive = small, poorly fitted or top-dose-only effect; inactive = no such curve, though single readings can be large or run the other way; further: potency means the concentration at half of the fitted maximal effect; the source files actives as falling curves though it sought activators and does not explain the sign; nearly all actives have a fitted effect of over 65% in size; many hits overshoot -100%
Target sequence (P80244 whole entry, looked up): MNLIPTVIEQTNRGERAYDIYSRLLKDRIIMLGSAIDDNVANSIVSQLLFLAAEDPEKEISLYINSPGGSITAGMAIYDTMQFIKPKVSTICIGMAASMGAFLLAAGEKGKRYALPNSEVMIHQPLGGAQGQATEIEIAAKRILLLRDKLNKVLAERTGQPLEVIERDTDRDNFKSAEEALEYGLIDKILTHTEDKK
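Purified B. subtilis ClpP, 10 microg/mL final in Tris/HCl pH8 with KCl, BSA, glycerol and Tween-20, cleaved an Abz/nitrotyrosine-quenched decapeptide. Fluorescence (ex 320, em 430) was read at 0 and 20 min at room temperature. Delta was normalized to 5.8 microM ADEP and DMSO/no-enzyme controls.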
Numbers without * were called inactive; ? = inconclusive; · = not tested or not shown; & = joins results of further samples; [ ] = dose if it differs, or a comment.

SMILES	gsp ag	gsp antagonist	Menin MLL FP FL	TRPML1 ag	TRPML1 blocker	ClpP mod
Cc1cccc(C)c1NC(=O)CS(=O)CC(=O)NC1CCCc2ccccc21 (configuration not stated)	-25%	-1%	-0.4	-0.5	4	-1.4%
O=C(CSc1n[nH]c(-c2ccccc2)n1)NCc1cccc(C(=O)O)c1	18%[15.4 µM]	-1%	-4.0	-0.6	13	·
O=C(CNC(=O)c1ccccc1Br)NCCSc1ccc(Br)cc1	-73%[inhibitor]	-2%	·	0.5	-5	2.4%
CC(C)=NNc1nc2c(c(=O)[nH]c(=O)n2C)n1CCc1ccccc1	10%	-8%	-1.2	0.5	5	·
O=C(OCC(=O)N1CCN(S(=O)(=O)c2ccccc2)CC1)c1ccc([N+](=O)[O-])o1	-2%[15.4 µM]	-7%	-0.8	-0.2	-4	-8.6%
COc1cnc(-c2ccccn2)nc1Oc1ccc(C(C)(C)C)cc1	-1%	-5%	0.5	2.3	25	0.0%
COc1ccc(C2N(C(=O)C(F)(F)F)C(C)CN2S(=O)(=O)c2ccc(C)cc2)cc1 (configuration not stated)	0%[15.4 µM]	2%	·	-0.2	-9	·
O=C(OCC(=O)N1CCc2ccccc21)c1cccnc1Cl	?	-6%	-1.4	2.1	22	3.6%
O=C1CCC/C(=N/NC(=O)c2cc(NS(=O)(=O)c3cccs3)cc(NS(=O)(=O)c3cccs3)c2)C1	15%	3%	-0.5	0.6	5	-1.3%
Cc1cccc(NC(=O)NNC(=O)c2nn(C)cc2Br)c1	0%	6%	1.6	0.1	11	-2.4%
COc1ccc(-c2nc3scc(CCNS(=O)(=O)c4c(C)cc(C)cc4C)n3n2)cc1OC	·	·	·	2.2	21	1.1%
COc1ccc(C(=O)NC2CC3CCCC(C2)N3CC(C)C)cc1OC (configuration not stated)	-1%	19%	-0.2	3.5	17	-1.1%
CC(C)(C)c1ccc(C(=O)N2CCC(c3nc4ccccc4o3)CC2)cc1	·	·	·	3.6	-4	-2.2%
CC1=CSC2=NC(=O)/C(=C\c3cccn3-c3ccccc3)C(=N)N12	-68%[inhibitor]	?	6.6	2.9	1	1.5%
Cn1c(CNC(=O)c2ccccc2F)nnc1SCC(=O)N1CCN(c2ccccc2)CC1	1%	10%	-4.5	0.3	28	·
Cc1ccc(Nc2nc(C(=O)N3CCC(C(=O)NCCN4CCOCC4)CC3)cs2)cc1	-23%	7%	2.6	0.4	-1	0.1%
CN(C)S(=O)(=O)c1ccc(C(=O)N2CCOCC2)cc1	-2%	-3%	-2.7	-0.4	-7	-0.4%
Cc1ccc(S(=O)(=O)N2CCN(C(=O)COC(=O)c3ccc(C(C)(C)C)cc3)CC2)c(C)c1	-4%[15.4 µM]	4%	-1.2	-0.3	2	0.4%
Cc1c(CCC(=O)N2CCC[C@H]2C(=O)O)c(=O)oc2cc3oc4c(c3cc12)CCCC4	·	-22%	0.1	·	·	-24%
O=C(CC1C(=O)NCCN1C(=O)Nc1ccc(Cl)cc1)Nc1ccc(F)cc1 (configuration not stated)	11%[15.4 µM]	-9%	0.0	0.1	3	·
OCCC1CN(CCCn2cccn2)CCN1Cc1ccccc1 (configuration not stated)	-5%[15.4 µM]	2%	-2.5	-0.4	-9	·
COc1ccc(CN2CCNC(=O)C2CC(=O)NCc2cc(C)n(C)n2)c(F)c1 (configuration not stated)	-15%	10%	?	0.4	12	1.2%
c1ccc(-c2ccc(CN3C[C@@H]4C(c5ccccc5)C5(c6cccnc6)CC4(C5)[C@H]3c3ccccc3)cc2)cc1 (some centres not stated)	·	3%	-6.2&3.4	1.1	32	-2.8%
CCOC(=O)COc1c(-c2ccc(OC)cc2)oc2ccccc2c1=O	-25%	-2%	2.6	0.7	-10	32µM*
CC(=O)Nc1cccc(OCc2cnc(Cl)s2)c1	-29%	14%	3.6	0.0	13	1.8%
O=C(CN(Cc1ccccc1)C(=O)c1ccco1)NCc1ccc(F)cc1	0%	3%	0.9	4.2	15	-2.4%
CCc1ccc(CN(C)C(=O)c2cccc(S(=O)(=O)Nc3ccccc3OC)c2)cc1	-4%[15.4 µM]	-10%	·	2.7	33	?
Fc1cccc(Cl)c1Cn1ncc2ccccc21	?	7%	8.1	0.8	0	0.0%
c1ccc2c(-c3nc4ccccc4[nH]3)cccc2c1	?	·	·	-0.7	-12	4.7%
CCc1csc(CCNC(=O)C2CCC(=O)N(Cc3cccc(C(F)(F)F)c3)C2)n1 (configuration not stated)	2%	-5%	·	0.6	-4	-1.2%
CN(CC(=O)NC1CCCc2ccccc21)S(=O)(=O)c1cccs1 (configuration not stated)	7%	-2%	3.0	-0.5	7	-3.9%
CSc1ncccc1C(=O)OCC(=O)N1CCc2ccccc21	-11%	10%	·	1.5	-11	0.5%
Cc1ccc(C)c(SCC(=O)c2ccc[nH]2)c1	4%	-8%	2.0	1.9	-9	-0.1%
CC(=O)Nc1ccc(SCCN2CCN(CC(C)C)CCC2=O)cc1	·	·	-1.2	0.2	5	·
CCOc1cccc(C(=O)NC(=S)Nc2ccccc2)c1	6%	-7%	-1.3	0.3	2	3.7%
Cc1ccccc1-n1nc2c(c1NC(=O)c1cc3ccccc3o1)CS(=O)(=O)C2	-5%[15.4 µM]	-2%	·	0.7	-1	0.6%
CCOc1ccc(S(=O)(=O)Nc2cccc(C(=O)NCC(c3ccc(OC)cc3)N3CCOCC3)c2)cc1 (configuration not stated)	-62%[inhibitor]	-11%	·	0.1	13	-1.4%
O=C(Nc1ccc(Cl)cc1Cl)c1csc(-c2cccnc2)n1	-1%	-25%	1.1	0.9	2	-1.4%
Cc1nnc(SCC(=O)Nc2ccc3c(c2)OCCO3)s1	24%	-2%	-1.1	0.3	-7	0.5%
CN(CC(=O)Nc1cccc(F)c1)C(=O)Cn1c(=O)cnc2ccccc21	-8%	6%	·	0.0	62	0.3%
COc1ccc(N2CCN(C(=O)C3CCN(C(=O)c4cccc(Cl)c4)CC3)CC2)cc1	19%	-3%	0.8	-0.3	-1	·
CC(C)OCCCNC(=O)c1c2c(nc3ccccc13)C(=O)N(C1CCCCC1)C2	·	·	·	-0.6	-5	?
O=C(NNC(=S)NC(=O)c1cccs1)c1ccc(O)cc1	25%	-6%	·	0.9	-8	-0.4%
COc1ccc(-n2c(N)c(C(=O)NCc3ccco3)sc2=S)cc1	-20%	-7%	3.0	-0.7	-5	-0.6%
COc1ccc(CCNc2ccc(C(CC(N)=O)NC(=O)c3cc(OC)ccc3OC)cc2[N+](=O)[O-])cc1 (configuration not stated)	·	-20%	3.7	-0.2	3	4.5%
COc1cccc(CNS(=O)(=O)c2ccc3c(c2)CCN3C(=O)C2CC2)c1	-11%[15.4 µM]	·	0.1	0.3	6	·
COc1cccc(-c2cn3c(n2)sc2cc(C(=O)NC4CCCCC4)ccc23)c1	·	·	·	0.0	22	?
Nc1nnc(CC(=O)N/N=C/c2cccc(OCCOc3ccccc3)c2)s1	?	3%[15.4 µM]	0.4	1.2	-4	-1.8%
COc1cc(OC)cc(-c2c(-c3cccs3)c3cc(-c4ccc5c(c4)OCO5)ccc3n2C)c1	?	-12%	·	-0.4	3	4.3%
O=[N+]([O-])c1ccc(CNc2cccc(F)c2)s1	14%[15.4 µM]	-4%	3.8	1.9	-6	0.5%
CCOC(=O)C1CCCN(S(=O)(=O)c2ccc(C)cc2)C1 (configuration not stated)	14%	1%	3.5	0.7	25	-1.9%
CCN(Cc1ccccc1)C(=O)Cn1c(=O)n(-c2cccc(C)c2)c(=O)c2c1c1cc(C)ccc1n2C	·	·	·	1.5	-7	4.1%
CCn1cc2nc(SCc3cccc(C(F)(F)F)c3)n(CCc3ccccc3)c(=O)c2n1	·	·	·	2.7	51	-1.5%
Cn1c(=O)c2[nH]c(C3CC4CCC3C4)nc2n(C)c1=O (configuration not stated)	7%	6%	·	0.4	21	2.8%
CC1(C)CC(=O)C(C(C2=C(O)CC(C)(C)CC2=O)c2ccc(Cl)c([N+](=O)[O-])c2)C(=O)C1 (configuration not stated)	8%[15.4 µM]	4%	1.1	-1.0	2	-0.2%
CN(Cc1ccccc1)C(=O)CCCn1c(=O)[nH]c2cc(Cl)ccc2c1=O	-2%	-7%	6.3	1.8	6	-5.9%
O=C(CN1C(=O)NC2(CCCC2)C1=O)OCC(=O)c1cccc(Cl)c1	0%[15.4 µM]	4%	·	1.1	0	·
O=C(Nc1ccccc1C(=O)O)c1ccc(NC(=O)c2ccc(Br)o2)cc1	22%	35µM*	3.8	2.9	9	-1.4%
CCc1ccc(NC(=S)N(Cc2cccnc2)Cc2ccco2)cc1	2%[15.4 µM]	7%	-3.9	5.6	-11	·
CCCCNC(=O)c1ccc2c(c1)NC(=O)C(CS(=O)(=O)Cc1ccc(F)cc1Cl)N2 (configuration not stated)	·	·	·	0.8	1	40µM*

2 of the compounds above, as a markdown table.
| Structure | gsp ag | gsp antagonist | Menin MLL FP FL | TRPML1 ag | TRPML1 blocker | ClpP mod |
| --- | --- | --- | --- | --- | --- | --- |
| COc1ccc(-n2c(N)c(C(=O)NCc3ccco3)sc2=S)cc1 | -20% | -7% | 3.0 | -0.7 | -5 | -0.6% |
| COc1ccc(CCNc2ccc(C(CC(N)=O)NC(=O)c3cc(OC)ccc3OC)cc2[N+](=O)[O-])cc1 (configuration not stated) | · | -20% | 3.7 | -0.2 | 3 | 4.5% |

The results go on:
SMILES	gsp ag	gsp antagonist	Menin MLL FP FL	TRPML1 ag	TRPML1 blocker	ClpP mod
COc1ccc(C2c3cc(OC)c(OC)cc3CCN2C(=O)c2ccccc2)cc1OC (configuration not stated)	?	-14%	1.1	0.5	88	·
O=C(NN=C(c1ccccc1)c1ccccn1)c1ccccc1	24%	-21%	·	0.4	7	1.3%
CCOc1ccc(-c2nnc(-c3ccco3)o2)cc1OCC	8%	-14%	0.5	0.4	-12	22µM*
OC(c1ccc(Cl)cc1)C(O)c1nc2ccccc2[nH]1 (configuration not stated)	?	8%	0.7	0.7	-5	-2.2%
O=C(CSCc1ccc(Cl)cc1)NCc1ccccn1	-45%[inhibitor]	0%	0.3	0.0	-8	-4.8%
